# ClpP mod: qHTS Assay for Activators of ClpP. purified B. subtilis ClpP, FRET peptide cleavage, 20 min. Potency, µM (doses to about 57.5 µM), without a hit: at the top dose activity change, negative = active. 340,000 tested, 1.9% active. AID 651965, 2013; active = well fitted falling curve with a large enough effect; inconclusive = small, poorly fitted or top-dose-only effect; inactive = no such curve, though single readings can be large or run the other way; note: potency is the fitted concentration of half-maximal effect; the source files actives as falling curves though it sought activators and does not explain the sign; nearly all actives have a fitted effect of over 65% in size; many hits overshoot -100%
# Target sequence (P80244 whole entry, looked up): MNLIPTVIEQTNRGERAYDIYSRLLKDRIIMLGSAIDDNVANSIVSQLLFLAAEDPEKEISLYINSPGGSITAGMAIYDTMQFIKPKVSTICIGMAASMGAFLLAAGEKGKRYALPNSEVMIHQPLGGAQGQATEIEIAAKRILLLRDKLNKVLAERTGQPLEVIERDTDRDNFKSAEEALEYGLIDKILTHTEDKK
#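 Buffer: 100 mM Tris/HCl pH8, 100 mM KCl, 0.05% low protease BSA, 2.5% glycerol, 0.01% Tween-20. ClpP 10 microg/mL final; 20 min RT; delta FRET normalized to ADEP and DMSO controls.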
# TRPML1 blocker: qHTS for Inhibitors of the Human Mucolipin Transient Receptor Potential 1 (TRPML1). TRPML1-inducible cells, Ca2+ dye fluorescence, FDSS; stronger effect = lower value; inhibition of EC80 agonist-evoked calcium signal. activity change, negative = inhibition, % (test concentration not listed). 390,000 tested, 0.02% active. AID 624415, 2012; in the data active means activity change below about -50%; inconclusive means about -30% to -50%; inactive means above about -30%;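 note: stimulus is agonist 54-4 at its EC80 concentration; % is set by controls: 0 for no effect and ±100 for the full control effect; compound concentration not given in the record; the text of the record puts the active cut at -80%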
#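 Tet-induced TRPML1-DL cells loaded with Ca8 no-wash calcium dye were read kinetically on FDSS. Compound addition was followed by EC80 agonist 54-4 (4 uM final); inhibition was read over 110 s.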
# Sfp PPTase inh: qHTS Assay for Inhibitors of Bacillus subtilis Sfp phosphopantetheinyl transferase (PPTase) | Biochemical Sfp PPTase activity, qHTS | Potency, µM, inactives show max response, negative = inhibition, most hits filed as inhibitors | 310,000 tested, 3.5% active | AID 1490, 2009; active = well fitted inhibition curve with a large enough effect; inconclusive = small, poorly fitted or top-dose-only effect, or another doubt; inactive = no such curve, though single readings can be large or run the other way;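 note: the enzyme is Sfp with the accession as filed and its product quenches rhodamine fluorescence; potency is the fitted concentration of half-maximal effect; 0% = enzyme reaction without inhibitor and -100% = no enzyme wells; top concentration of the series not given in the record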
#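 Fluorescence-quenching assay with 15 nM Sfp, 5 uM rhodamine-CoA and 12.5 uM BHQ-2-labelled ybbR peptide in pH 7.6 Hepes/MgCl2 buffer. Enzyme was pre-incubated with compound for 15 min at room temperature. Rate was taken from the 30-min fluorescence change (525/598 nm).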
# Menin-MLL FL inh: qHTS Assay for Inhibitors Targeting the Menin-MLL Interaction in MLL Related Leukemias: Competition With Fluorescein Labeled MLL-derived Peptide | Fluorescence polarization, fluorescein-MLL peptide displacement from menin | FP activity change, % at 61.4 µM | 290,000 tested, under 10 active; inconclusive = falling polarisation curve, or a change in total fluorescence; inactive = total fluorescence flat and polarisation flat or rising; no compound was filed as active; the % refers to the polarisation; negative = inhibition;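 note: % of control where 0% means no effect; inhibitors lower the polarisation; unlabelled MLL peptide was the positive control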
# TRPV1 PAM: HTS Assay for Compounds that Act as Potentiators of the Vanilloid Receptor 1; Transient receptor potential cation channel subfamily V member 1 (Homo sapiens), Q8NER1; TRPV1-expressing cells, Fluo-8 calcium influx, capsaicin EC20 potentiation; host cell line not named in the record; control for the full effect not named in the record; potentiation, % at 8.33 µM; 320,000 tested, 0.02% active; AID 540277, 2011; active means potentiation above 80%; inconclusive means 30% to 80%; inactive means below 30%; note: 0% is about no effect
# Target sequence (Q8NER1 whole entry, looked up): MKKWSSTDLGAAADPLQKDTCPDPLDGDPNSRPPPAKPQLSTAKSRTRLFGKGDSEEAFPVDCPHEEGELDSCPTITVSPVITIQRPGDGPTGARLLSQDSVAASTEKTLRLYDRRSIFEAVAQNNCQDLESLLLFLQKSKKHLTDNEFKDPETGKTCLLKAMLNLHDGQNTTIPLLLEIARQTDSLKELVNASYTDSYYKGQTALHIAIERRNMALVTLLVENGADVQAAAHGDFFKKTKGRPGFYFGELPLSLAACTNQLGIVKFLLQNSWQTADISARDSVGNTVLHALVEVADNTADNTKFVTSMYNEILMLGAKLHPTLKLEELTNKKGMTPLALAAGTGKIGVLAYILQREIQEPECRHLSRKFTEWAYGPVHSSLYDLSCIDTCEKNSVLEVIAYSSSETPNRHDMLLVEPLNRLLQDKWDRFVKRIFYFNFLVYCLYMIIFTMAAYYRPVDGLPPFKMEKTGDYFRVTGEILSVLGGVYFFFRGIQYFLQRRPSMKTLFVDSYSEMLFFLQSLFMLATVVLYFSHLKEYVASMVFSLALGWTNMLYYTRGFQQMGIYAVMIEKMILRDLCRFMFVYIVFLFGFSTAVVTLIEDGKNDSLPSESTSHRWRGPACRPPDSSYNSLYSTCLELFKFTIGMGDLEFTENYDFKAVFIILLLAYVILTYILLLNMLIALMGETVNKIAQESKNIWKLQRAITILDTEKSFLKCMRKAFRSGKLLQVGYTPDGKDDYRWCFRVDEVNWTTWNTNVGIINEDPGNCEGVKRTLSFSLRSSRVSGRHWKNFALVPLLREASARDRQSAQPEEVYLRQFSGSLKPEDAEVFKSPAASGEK
#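 TRPV1-expressing cells were cultured overnight at 35.5C and loaded with Fluo-8 calcium dye for 40 to 90 min at room temperature. After a 10 s baseline, compound was added and calcium influx was read kinetically for 3 min (ex 480/em 520 nm).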
# gsp antagonist: qHTS for Antagonists of gsp, the Etiologic Mutation Responsible for Fibrous Dysplasia/McCune-Albright Syndrome: qHTS | gsp-mutant cells, cAMP HTRF, 30 min; control for the full effect not named in the record | Potency, µM (highest dose often 76.9 µM), without a hit: at the top dose activity change, negative = inhibition, actives largely listed as inhibitors | 340,000 tested, 0.4% active | AID 624288, 2012; active = falling curve of any shape with a large fitted effect; inconclusive = falling curve, mostly with a smaller effect; inactive = flat or rising curve; cell line not stated here;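 note: intracellular cAMP measured with PDE inhibitor Ro 20-1724 present during compound exposure; potency is the fitted concentration of half-maximal effect; % is set by controls: 0 for no effect and ±100 for the full control effect; nearly all actives have a fitted effect of over 65% in size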
#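 HTRF cAMP read-out (cAMP-d2 plus anti-cAMP antibody-K in lysis buffer, 30 min RT). Before lysis, cells are exposed to compounds with […] for 30 min at 37C in DPBS containing Ca/Mg, BSA and Tween 20.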
# gsp ag: qHTS for Agonist of gsp, the Etiologic Mutation Responsible for Fibrous Dysplasia/McCune-Albright Syndrome: qHTS; gsp mutant cells, cAMP HTRF, 30 min; control for the full effect not named in the record; Potency, µM (highest dose often 76.9 µM), for inactives: top-dose activation (cAMP increase), actives largely listed as activators; 340,000 tested, 0.13% active; AID 624287, 2012; active = well fitted activation curve with a large enough effect; inconclusive = small, poorly fitted or top-dose-only effect, or another doubt; inactive = no such curve, though single readings can be large or run the other way; cell line not stated here;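 note: phosphodiesterase inhibitor Ro 20-1724 added with compounds to block cAMP breakdown; potency is the fitted concentration of half-maximal effect; nearly all actives have a fitted effect of over 60% in size; about a fifth of the inactives were tested at one dose only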
#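 Cells in DMEM/10% FBS with G418 were pretreated with compounds in DMSO plus […] (300 uM stock) for 30 min at 37C. cAMP was measured by HTRF (cAMP-d2 plus anti-cAMP antibody-K) after 30 min at room temperature.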
# * = called active by the depositor; ? = inconclusive; / = no result given; [ ] = remark or other dose.
Compound,ClpP mod,TRPML1 blocker,Sfp PPTase inh,Menin-MLL FL inh,TRPV1 PAM,gsp antagonist,gsp ag
COc1cccc(CN=CC2=C(O)CC(C)(C)CC2=O)c1OC,0.5%,-13,11%,3.2,-40,-14%,-21%
COc1cc(C)c(COc2ncnc3ccccc23)cc1OC,/,-2,-3%,-3.3,6,1%,?
Cc1[nH]n2c(=O)cc(Cc3ccccc3)nc2c1C#N,-25%,0,-3%,3.7,-1,-3%,7%
Cc1ccc(C(=O)OCC(=O)NC(C)c2ccccc2)cc1C (centres undefined),-2.7%,17,/,/,/,5%,-3%
O=C(O)COc1ccccc1/C=N/NC(=O)CSc1nc2ccccc2c(=O)n1-c1ccc(Cl)cc1,-2.2%,-1,2%,3.2,10,4%,?
O=C(Nc1cccc(C(F)(F)F)c1)c1cnc2n(c1=O)CCS2,-9.6%,-3,14%,1.4,-21,5%,16%
CCOC(=O)c1nn(-c2ccc(C)cc2)c(=O)cc1OCC(=O)Nc1ccc(OC)cc1,8.9µM*,-1,/,/,20,-1%,-9%
CCn1c(Cc2ccccc2)nnc1SCC(=O)Nc1ccc(N2CCOCC2)c(Cl)c1,0.8%,-9,9%,0.4,5,-6%,-1%
COc1ccc([C@H]2N[C@]3(CCCN(Cc4ccc(Br)cc4)C3=O)[C@H]3C(=O)N(Cc4ccccc4)C(=O)[C@@H]23)cc1,-1.7%,7,/,/,/,/,-49%
COc1ccccc1NC(=S)N1CCNC(=O)C1CC(=O)Nc1cccc(C)c1 (centres undefined),1.3%,-1,-1%,3.0,-6,1%,1%
Cc1ccc(-c2cc(-c3ccccc3)nc(Cl)n2)cc1,28µM*,4,-5%,-1.4,-3,-6%,-3%
CC(=O)C1=C(O)C(=O)N(c2ccc(Br)cc2)C1c1ccc(Br)cc1 (centres undefined),-8.9%,-3,-7%,2.3,-13,-13%,?

# Next section.
Compound,ClpP mod,TRPML1 blocker,Sfp PPTase inh,Menin-MLL FL inh,TRPV1 PAM,gsp antagonist,gsp ag
CN(Cc1cn(C)c2ccccc12)C(=S)Nc1cc(F)cc(F)c1,0.9%,11,8%,-1.4,14,-5%,-2%
CC(=O)Nc1nc2ccc(C(=O)NC3CCCCC3)cc2s1,1.2%,-3,?,-0.2,-6,-4%,-14%
CC(=O)NCCC(=O)NCC1(N(C)Cc2ccccc2)Cc2ccccc2C1,0.3%,-24,11%,0.6,1,3%,-34%[inhibitor]
CC1(C)CC(NS(=O)(=O)OCC(Cl)(Cl)Cl)c2cc(C#N)ccc2O1 (centres undefined),-2.4%,7,22%,6.3,7,-8%,23%
CCOC(=O)N1CCN(C(=O)CCc2nc3sc4c(c3c(=O)[nH]2)CCCC4)CC1,/,-11,12%,-3.8,8,9%,-7%[15.4 µM]
Cc1cc(C(=O)NC2CCCCCC2)c2ccccc2n1,/,-2,/,/,/,2%,13%
O=C(CN1C(=O)C2C3c4ccccc4C(c4ccccc43)C2C1=O)N1CCOCC1 (centres undefined),0.3%,-13,10%,-1.7,-8,5%,?
Cc1ccccc1N=CC=C1OC(C)(C)C(C)(C)O1,-21%,38,?,-0.3,11,-1%,5%[15.4 µM]
CC1CN(C(=O)c2ccccc2NS(=O)(=O)c2ccc(Cl)cc2)CC(C)O1 (centres undefined),-1.2%,-11,/,/,/,-11%,-61%[inhibitor]
COc1cccc(NC(=O)c2nn(C34CC5CC(CC(C5)C3)C4)cc2[N+](=O)[O-])c1,1.8%,44,12%,-0.1,-4,-21%,9%
Cc1cc(Br)ccc1OCC(=O)NNC(=O)CCc1ccccc1,/,13,13%,-0.3,13,2%,-4%[15.4 µM]
COc1ccc2ccccc2c1/C=N/NC(=O)c1cccc(C)c1,-6.7%,27,/,/,/,-9%,-1%

# Further compounds.
Compound,ClpP mod,TRPML1 blocker,Sfp PPTase inh,Menin-MLL FL inh,TRPV1 PAM,gsp antagonist,gsp ag
CC(NC(=O)COC(=O)c1nc(Cl)ccc1Cl)c1ccccc1 (centres undefined),-2.7%,2,/,/,/,2%,-24%
COc1ccc(Cl)cc1-c1nc(-c2ccncc2)no1,-3.4%,-6,11%,0.1,-4,-8%,-11%
COc1ccc(C2Nc3ccccc3C(=O)N2Cc2ccccc2)cc1COc1ccccn1 (centres undefined),25µM*,15,2%,15,?,-10%,5%
CN1CCN(CCCNC(=O)Nc2ccc([N+](=O)[O-])cc2)CC1,?,-4,3%,-4.4,7,12%,-9%[15.4 µM]
CCC(=O)c1ccc(OCC(O)Cn2nc(C)cc2C)cc1 (centres undefined),5.2%,36,17%,/,-42,2%,15%
Cc1cc(=O)n(-c2ccc(O)cc2)[nH]1,-0.9%,-1,0%,?,4,5%,24%
Cc1nc2nc(C)c(CCC(=O)NCCC3=CCCCC3)c(C)n2n1,-1.5%,13,14%,2.3,-3,8%,-5%
COCCn1nnnc1C(c1cc2cc(OC)c(OC)cc2[nH]c1=O)N1CCN(c2ccc(O)cc2)CC1 (centres undefined),/,-5,?,-0.3,3,6%,7%[15.4 µM]
Cc1ccc(SC2=C(N(C)C)C(=O)c3ccccc3C2=O)cc1,1.0%,71,/,/,/,19%,?
O=C1NC(=S)SC1=C1CCCC1,-1.4%,23,40µM*,?,0,4%,8%
O=C(c1ccc(Cn2cc(Cl)c([N+](=O)[O-])n2)cc1)N1CCN(Cc2ccccc2)CC1,-1.4%,-18,8%,-1.1,-13,-5%,-14%
O=C(c1cccc(F)c1)N1CCN(S(=O)(=O)c2ccc(C(F)(F)F)cc2)CC1,-1.4%,2,25%,1.7,22,9%,-10%

# Compound profiles, from the list above. Order of screens: ClpP mod | TRPML1 blocker | Sfp PPTase inh | Menin-MLL FL inh | TRPV1 PAM | gsp antagonist | gsp ag
# Profile of CC1(C)CC(NS(=O)(=O)OCC(Cl)(Cl)Cl)c2cc(C#N)ccc2O1 (centres undefined) = -2.4% | 7 | 22% | 6.3 | 7 | -8% | 23%
# Profile of CN1CCN(CCCNC(=O)Nc2ccc([N+](=O)[O-])cc2)CC1 = ? | -4 | 3% | -4.4 | 7 | 12% | -9%[15.4 µM]
# Profile of CCOC(=O)c1nn(-c2ccc(C)cc2)c(=O)cc1OCC(=O)Nc1ccc(OC)cc1 = 8.9µM* | -1 | / | / | 20 | -1% | -9%
# Profile of COc1cc(C)c(COc2ncnc3ccccc23)cc1OC = / | -2 | -3% | -3.3 | 6 | 1% | ?

# Further structures:
Compound,ClpP mod,TRPML1 blocker,Sfp PPTase inh,Menin-MLL FL inh,TRPV1 PAM,gsp antagonist,gsp ag
Cc1cc(C)cc(OC2CCCCC2NS(=O)(=O)c2ccccc2)c1 (centres undefined),-0.4%,3,14%,2.1,-1,-13%,-25%
NC(=O)c1cccn1Cc1cccc(Cl)c1,-3.4%,-1,2%,6.9,-2,-19%,-43%[inhibitor]
CC(C)Cc1nnc(NC(=O)CCC(=O)N2CCN(S(=O)(=O)c3ccccc3)CC2)s1,1.0%,3,22%,-1.3,5,-4%,-2%
COc1ccc(CCNC(=O)COC(=O)/C=C/c2cc(OC)ccc2OC)cc1,-22%,34,/,/,/,3%,?
O=C(CCc1nnc(COc2ccccc2)o1)NCc1ccc(Cl)s1,/,16,12%,-0.3,2,9%,?
FC(F)(F)c1ccc(N2CCN(c3ncnc4c3nnn4Cc3ccccc3Cl)CC2)cc1,?,-19,-11%,0.8,-4,5%,?
O=[N+]([O-])c1cccnc1S(=O)(=O)c1ccccc1,/,-19,3%,-4.1,-4,?,2%
Cc1ccccc1Oc1nc(-c2ccccn2)nc2ccccc12,0.8%,41,?,-3.1,16,-2%,-8%[15.4 µM]
CCN(C(=O)COC(=O)c1cc(Cl)ccc1OC)c1c(N)n(Cc2ccccc2)c(=O)[nH]c1=O,-6.6%,-1,/,/,8,2%,8%
CCOC(=O)C(NS(=O)(=O)c1ccc(Br)cc1)C(C)C (centres undefined),0.9%,-10,13%,-2.5,7,-4%,6%
COc1ccc(CCNC(=O)C2CC(c3cc(C(F)(F)F)cc(C(F)(F)F)c3)=NO2)cc1 (centres undefined),-0.4%,-5,6%,0.1,?,6%,-8%
Cc1cc(NC(=O)c2noc3c2CCCCC3)no1,0.8%,-8,12%,0.0,-2,19%,10%

# Further entries.
Compound,ClpP mod,TRPML1 blocker,Sfp PPTase inh,Menin-MLL FL inh,TRPV1 PAM,gsp antagonist,gsp ag
COC(=O)c1cccc(N(C(=O)c2cnccn2)C(C(=O)NC2CCCCC2)c2cn(C)nc2C)c1 (centres undefined),5.6%,0,-8%,-2.5,17,-6%,12%
N#C/C(=N/O)c1nc(-c2ccc(F)cc2)cs1,0.3%,25,10%,8.1,3,?,-7%[15.4 µM]
Cc1cccc(N/N=C(\C=N\N)C(=O)c2ccc(Br)cc2)c1,/,/,21%,-10,-29,/,/
O=[N+]([O-])c1cccc(-n2nnnc2CNCc2ccccc2)c1,0.2%,-12,15%,1.7,-4,7%,0%
CCc1nnc(NC(=O)CCC(=O)N2CCN(Cc3ccc(Cl)cc3)CC2)s1,-1.9%,-12,13%,1.3,0,-11%,-46%[inhibitor]
COc1c(C)cc(C(=O)C2CCCN(C(=O)c3cccc(F)c3)C2)cc1C (centres undefined),-1.5%,18,9%,-3.6,-2,-9%,-1%
CCOC(=O)c1c(NC(=O)CN(CC)CC)sc2c1CCN(C(=O)OCC)C2,-10%,55,?,-0.7,-3,-15%,6%
CCCN(CC(=O)Nc1ccccc1C)C(=O)C1CC(=O)N(c2ccccc2OCC)C1 (centres undefined),/,-29,/,/,/,-5%,18%[15.4 µM]
N#Cc1nc(-c2ccccc2F)oc1NCc1ccccc1,5.0%,5,-21%,3.3,-12,1%,19%

# Screening data from PubChem BioAssay.
